# Compound activity from PubChem.
# StopGo reporter: FMDV 2A StopGo reporter, luciferase signal | 410,000 tested, 1.2% active | Potency, µM (doses to about 57.9 µM), for the others: top-dose signal change, negative = less light | human cells with a luciferase reporter of 2A StopGo recoding; control for the full effect not named in the record; active = well fitted falling curve with a large enough effect; inconclusive = small, poorly fitted or top-dose-only effect; inactive = no such curve, though single readings can be large or run the other way; tested in HEK293T cells; also: % is scaled to controls: 0 for no effect and ±100 for the full control effect; nearly all actives have a fitted effect of over 45% in size; luciferase light after 4 h
# RE007 growth inh: less growth of the S. pombe RE007 Vpr strain; Potency, µM (doses to about 92.2 µM), for inactives: at the top dose activity change, negative = less growth; 360,000 tested, 0.21% active; S. pombe RE007 Vpr strain, BacTiter-Glo ATP luminescence, 24 h; control for the full effect not named in the record; active = well fitted falling curve with a large enough effect; inconclusive = small, poorly fitted or top-dose-only effect; inactive = no such curve, though single readings can be large or run the other way;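 also: % is scaled to controls: 0 for no effect and ±100 for the full control effect; nearly all actives have a fitted effect of over 50% in size; the assay follows cell death caused by Vpr and the record does not say whether a fall means rescue or toxicity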
#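 Fission yeast strain RE007, carrying one chromosomally integrated HIV-1 vpr copy, was seeded at OD 0.01 in PMG+AL medium with 23 nL pinned compound. After 24 h at 30 °C and 99% humidity, viability was read by BacTiter-Glo luminescence.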
# NS1 function inh: influenza NS1 inhibition | S. cerevisiae slowed by influenza A NS1, growth recovery by OD600 | Potency, µM (titrated, usually from 46.1 µM), for the others: at the top dose activity, positive = more growth | 270,000 tested, 0.4% active | AID 2326; active means well fitted rising curve with a large enough effect; inconclusive means small, poorly fitted or top-dose-only effect; inactive means no such curve, though single readings can be large or run the other way; also: nearly all actives have a fitted effect of over 50% in size
#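 In this qHTS, NS1 from influenza A is expressed in budding yeast, where it slows growth. Cells are switched from glucose to 2% galactose medium (pH 6.0, -URA), treated with compound, and growth recovery is read at OD600.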
# Cruzain noTriton: cruzain (T. cruzi) inhibition without detergent; purified cruzain, Z-FR-AMC fluorescence, no detergent; Potency, µM, inactives show max response, negative = inhibition, actives largely listed as inhibitors; 200,000 tested, 2.3% active; AID 1476;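 also: plate controls were enzyme without inhibitor for no effect and buffer without enzyme for full effect; nearly all actives have a fitted effect of over 40% in size; top concentration of the series not given in the record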
# Target sequence (P25779 123-467 limits assumed): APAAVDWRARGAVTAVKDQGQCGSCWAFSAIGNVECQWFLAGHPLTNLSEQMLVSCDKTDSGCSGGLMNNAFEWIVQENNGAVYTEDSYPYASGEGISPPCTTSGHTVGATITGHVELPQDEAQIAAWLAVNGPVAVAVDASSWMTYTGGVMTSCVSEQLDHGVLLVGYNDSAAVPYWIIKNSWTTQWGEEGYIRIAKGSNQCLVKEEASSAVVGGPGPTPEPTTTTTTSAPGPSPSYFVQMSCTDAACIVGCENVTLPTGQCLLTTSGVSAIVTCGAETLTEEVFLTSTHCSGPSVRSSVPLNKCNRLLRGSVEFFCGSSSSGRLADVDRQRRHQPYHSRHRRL
#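 Detergent-free condition (0.00005% Triton X-100) in acetate buffer pH 5.5 with DTT. 1.5 nM enzyme and compound were pre-mixed 15 min, then 2 uM Z-FR-AMC substrate added; reaction progress from fluorescence change between first and third reads (60 s).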
# SARS PLpro yeast: inhibitors of SARS-CoV papain-like protease in yeast; 330,000 tested, 0.19% active; S. cerevisiae expressing SARS-CoV PLpro, growth rescue; control for the full effect not named in the record; Potency, µM (top dose mostly 32.9 µM), for inactives: top-dose activity, positive = growth rescue; active means well fitted rising curve with a large enough effect; inconclusive means small, poorly fitted or top-dose-only effect; inactive means no such curve, though single readings can be large or run the other way; also: 0% is about no effect; nearly all actives have a fitted effect of over 55% in size; growth read by luminescence after 48 h
# LASV entry inh: inhibitors of Lassa virus binding or cell entry | Lassa virus pseudotype entry inhibition, cell reporter; control for the full effect not named in the record | Potency, µM (top dose mostly 37.9 µM), for the others: at the top dose activity change, negative = inhibition, usual class: inhibitors | 300,000 tested, 1.2% active | AID 540256; active means well fitted inhibition curve with a large enough effect; inconclusive means small, poorly fitted or top-dose-only effect, or effect the other way; inactive means flat fitted curve, though single readings scatter; tested in HEK293 cells; also: % is scaled to controls: 0 for no effect and ±100 for the full control effect; nearly all actives have a fitted effect of over 50% in size; luciferase read-out
# Marburg entry inh: blocks Marburg virus binding to or entry into cells; Marburg virus pseudotyped entry inhibition, cell reporter; control for the full effect not named in the record; about a third of the inactives were read at about 46 µM; Potency, µM (doses to about 37.8 µM), without a hit: at the highest dose activity change, negative = inhibition, actives largely listed as inhibitors; 300,000 tested, 1.8% active; active = well fitted inhibition curve with a large enough effect; inconclusive = small, poorly fitted or top-dose-only effect, or effect the other way; inactive = flat fitted curve, though single readings scatter; tested in HEK293 cells; about a fifth of its hits are not listed in these tables; also: % is scaled to controls: 0 for no effect and ±100 for the full control effect; luciferase read-out
# Cruzain inh Det: cruzain (T. cruzi) inhibition with detergent; P25779; purified cruzain, Z-FR-AMC fluorescence, 0.01% Triton; Potency, µM, for the others: max response, negative = inhibition, usual class: inhibitors; 200,000 tested, 0.43% active;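 also: plate controls were neutral wells for no effect and buffer without enzyme for full effect; nearly all actives have a fitted effect of over 40% in size; top concentration of the series not given in the record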
#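 15 min RT preincubation of 1.5 nM cruzain with compound, then 2 uM Z-FR-AMC added; kinetic AMC fluorescence, 60 s delta. Triton X-100 0.01%, pH 5.5.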
# Numbers without * were called inactive; ? = inconclusive; . = not tested or not shown; & = joins results of further samples; [ ] = dose if it differs, or a comment. Unless noted, calls follow the shape of the dose curve; as a rule, active = well fitted curve in the direction sought with a large enough effect; inconclusive = small, poorly fitted or top-dose-only effect, or another doubt; inactive = no such curve, though single readings can be large; an effect the other way counts as inactive or inconclusive. Potency is read from the fitted curve at half-maximal effect.
SMILES,StopGo reporter,RE007 growth inh,NS1 function inh,Cruzain noTriton,SARS PLpro yeast,LASV entry inh,Marburg entry inh,Cruzain inh Det
COc1ccc2c(c1)CCc1c-2n[nH]c1C(=O)O,-6%,-9%,1%,2%,1%,1%,11%,-0.2%
Cc1ccc(C(=O)N/C(=C\c2cccs2)c2nc3ccccc3[nH]2)cc1,12%,32%,?,5%,-13%,-14%,0%,-6.7%
O=C(N/N=C/c1cccnc1)c1cccc(Cl)c1,8%,-5%,-1%,.,-3%,23%[46.1 µM],1%[46.1 µM],.
CCCN1CCn2c3c(c4cc(Br)ccc42)CCCC31 (stereo not given),12%,5%,-7%,.,-2%,.,.,.
CN1CCCN(Cc2ccccc2C(F)(F)F)CC1,12%,28%,10%,4%,-2%,?,-24%,-1.2%
Cn1cc(S(=O)(=O)N2CCCCC2)cc1C(=O)N1CCN(c2ccc(F)cc2)CC1,0%,.,.,?,.,8%[46.1 µM],.,-2.2%
CN(C(=O)c1ccccc1NC(=O)C(F)(F)F)c1ccccc1,-10%,15%,11%,1%,-9%,9%,12%,0.2%
O=C(NCC1COc2ccccc2O1)Nc1ccccc1F (stereo not given),25%,-15%,-13%,7%,8%,?,-7%,-2.5%
CCOC(=O)N1CCN(C(=O)C2CCCN(c3ncnc4c3sc3cccc(F)c34)C2)CC1 (stereo not given),-19%,-4%,-40%,.,.,17%[46.1 µM],-7%[46.1 µM],.
COc1ccccc1Nc1nc2ccc(C)cc2cc1C#N,28%,0%,-7%,-3%,-4%,19%,-1%,1.3%
CSc1nsc(SC)c1NC(=O)Nc1ccccc1C,-11%,6%,.,.,1%,11%,9%[46.1 µM],.
C/C(=N/NC(=O)CNC(=O)c1cccnc1)c1ccc(Cl)c(Cl)c1,-14%,-3%,0%,.,1%,.,.,.
Cc1nc(-c2ccccc2)sc1C(N)=O,9%,?,-30%,-2%,1%,21%,6%,-5.8%
CCOC(=O)c1sc2nc(-c3cccnc3)ccc2c1N,-30%,-3%,0%,.,-3%,6.3µM*,?,.
COc1ccc(NC(=O)c2sc3nc4n(c(=O)c3c2C)CCC4)cc1Cl,10%,.,.,?,.,1%[46.1 µM],.,-6.4%
Cn1cccc1Cc1nnc(SCC(=O)N2CCOCC2)n1-c1ccc(F)cc1,-21%,9%,22%,?,?,.,.,-0.7%
CCSc1nc2c(c(=O)[nH]c(=O)n2C)n1CC(O)COc1ccccc1C (stereo not given),20µM*,-10%,-55%,14%,3%,-4%,?,1.5%
Cc1ccc(C)c(NS(=O)(=O)c2c(C)[nH]c(C)c2C(=O)N2CCCCC2)c1,33%[activator],-4%,-4%,.,-9%,20%[46.1 µM],.,.
O=C(NC(=S)N1CCc2ccccc21)c1ccco1,-17%,1%,-2%,.,1%,9%[46.1 µM],-1%[46.1 µM],.
O=C(COC(=O)COc1ccc(Cl)cc1)NCCCc1ccccc1,-5%,6%,.,.,-6%,24%,2%[46.1 µM],.
COc1ccc(CNC(=O)C2CC(c3cc(C(F)(F)F)cc(C(F)(F)F)c3)=NO2)cc1 (stereo not given),-18%,6%,3%,.,-3%,.,.,.
COc1ccc(OCc2nnc(SCC(=O)N3CCCC3)o2)cc1,1%,12%,6%,.,2%,7%[46.1 µM],13%[46.1 µM],.
O=C(NNc1c2ccccc2nc2ccccc12)c1ccccc1O,-17%,4%,-7%,?,4%,?,?,-7.5%
N#C/C(=C\c1ccc(N2CCOCC2)o1)C(=O)Nc1ccc(O)cc1,20%,8%,3%,.,0%,?,?,.
CCCN1CCN(C(=O)CCS(=O)(=O)c2cc3c(cc2Cl)NC(=O)CO3)CC1,-13%,5%,-3%,.,2%,.,.,.
Cc1ccc(OCCNc2ccc(S(=O)(=O)N3CCCC3)cn2)cc1,3%,-13%,.,.,-1%,?,-24%[46.1 µM],.
COc1ccc2sc(/C=C/c3ccccc3O)[n+](C)c2c1,-22%,?,.,.,-2%,4%[46.1 µM],3%[46.1 µM],.
CCCOc1ccc(N2C(=O)CC(N3CCN(CCN=CC4=C(O)CC(C)(C)CC4=O)CC3)C2=O)cc1 (stereo not given),-4%,?,-10%,.,-5%,1%,14%[46.1 µM],.
COC(=O)CN(c1ccc(OC)c(OC)c1)S(C)(=O)=O,3%,-9%,-4%,-17%,1%,4%,2%,-0.9%
Nc1nc(-c2ccc(Cl)cc2)cn1N,-3%,-9%,-5%,-20%,-7%,-1%,.,0.0%
O=C(NCc1ccccc1)c1cc2ccc3cccnc3c2[nH]1,75%[activator],.,.,-4%,.,-19%[46.1 µM],.,-7.0%
O=C(N/N=C/c1ccc(OCc2ccccc2)cc1)c1cc[n+](Cc2ccccc2)cc1,0%,-29%,-30%,10%,9%,10%,?,-6.2%
CCOC(=O)c1ccc(NC(=O)CSc2nc3cc4ccccc4cc3[nH]2)cc1,1%,.,.,28%,.,1%[46.1 µM],3%[46.1 µM],-1.9%
Cc1cc(-c2ccc(C)c(S(=O)(=O)NCCC(C)N3CCCCCC3)c2)on1 (stereo not given),13%,-7%,-3%,.,1%,.,.,.
O=C(Cc1ccc(Cl)cc1)NC1CCCCCC1,45%[activator],7%,1%,.,-2%,?,5%,.
O=C(N/N=C/c1cccc(C(F)(F)F)c1)c1ccccc1O,-25%,1%,-19%,.,-5%,.,3%,.
CCOC(=O)c1c(C)[nH]c(C)c1S(=O)(=O)N(C)CC(=O)Nc1cc(Cl)ccc1OC,-13%,.,.,?,.,?,.,-3.5%
COc1cc(Cl)c([C@@H]2C[C@H]3CN(c4ccccc4)C(=O)[C@]34CCCN24)cc1OC,-25%,-1%,1%,.,1%,.,.,.
Cc1[nH]nc(SCC(=O)NCc2ccc(F)cc2)c1[N+](=O)[O-],12%,4%,9%,-9%,15%,-4%,-3%,1.4%
CC(=O)N=c1sc(S(N)(=O)=O)nn1C,-14%&-5%,4%[18.4 µM],6%,0%&5%&8%,1%,-3%,1%&1%&1%&1%&1%&1%&1%&1%,-0.2%&1.2%&-0.8%
COc1cc(C2NC(=O)c3ccccc3O2)cc(OC)c1OC (stereo not given),-10%,-4%,0%,-1%,0%,-1%,-6%,2.8%
O=C(O)CCC(=O)Nc1ccccc1C(=O)NCc1ccccc1,-10%,4%,4%,4%,-16%,?,9%,2.2%
CC(C)(C)C(=O)C(CO)(Oc1ccc(Cl)cc1)n1cncn1 (stereo not given),-23%,-8%,-192%,21%,-9%,1%,3%,-6.4%
CCOC(=O)c1ccc(NC(=O)COc2ccccc2OC)cc1,-2%,-10%,-28%,6%,-2%,0%,0%,-2.0%
Cc1ccc(NC(=O)Cn2cc3c(n2)CCC(C)C3)cc1 (stereo not given),-25%,4%,-14%,3%,-7%,.,.,-3.1%
CC(C)NC(=O)c1ccccc1S(=O)(=O)c1ccccc1C#N,-8%,-8%,1%,-9%,1%,9%,2%[46.1 µM],0.9%
CC(=O)c1ccc(N2CCN(c3ccc(C(N)=O)cc3[N+](=O)[O-])CC2)cc1,?,-3%,4%,.,-1%,.,.,.
CCOC(=O)N1CCC(N2Cc3cccc(C(=O)NCc4ccc5c(c4)OCO5)c3C2=O)CC1,-23%,6%,-13%&4%,.,0%,.,.,.
Cc1ccc(NC(=O)Cc2nnc(SCC(=O)c3ccc(Br)cc3)n2C)cc1Cl,.,.,5%,13µM*,5%,.,-2%,6.6%
Clc1cccc(-n2ncc3c(N4CCCCC4)ncnc32)c1,-10%,.,.,0%,.,-23%[46.1 µM],.,0.5%
CCCCOC(=O)NC1CCc2cc(OC)c(OC)c(OC)c2-c2ccc(SC)c(=O)cc21 (stereo not given),0%,4%,.,.,.,.,.,.
CCOC(=O)C1(Cc2ccc(OC)cc2)CCN(C(=O)CCc2cnccn2)CC1,3%,-4%,-6%,.,1%,1%,17%[46.1 µM],.
CCNC(=O)/C(C#N)=C/c1c(N2CCCCCC2)nc2ccccn2c1=O,-20%,5%,4%,.,1%,.,.,.
Cc1ccc2nc(NCc3ccccc3)c(C=O)c(=O)n2c1,38%[activator],8%,-5%,-8%,7%,0%,11%,-2.5%
CCc1ccc2c(c1)c(=O)c(S(=O)(=O)c1ccc(F)cc1)cn2CC(=O)Nc1ccc(C)cc1C,10%,.,.,-10%,.,?,8%[46.1 µM],-0.9%
COc1ccc(C(=O)Nc2ccc3ncccc3c2)cc1,-58%,0%,-33%,.,-11%,?,?,.
O=C(Nc1cccc(F)c1)c1ccc(-c2ccccc2C(F)(F)F)o1,.,.,-61%,-8%,-43%,15%,?,-11%
O=c1cc(CO)occ1OCc1c(F)cccc1Cl,26%,1%,.,.,0%,-1%,3%[46.1 µM],.
CC(=O)NC(Cc1ccccc1)C(=O)N1CCN(C(=O)c2cccs2)CC1 (stereo not given),12%,1%,1%,5%,2%,17%,-2%,2.6%
CC1=C/C(=N\S(=O)(=O)c2ccccc2)C(C(C)C)=CC1=O,24%,8%,2%,.,1%,-4%[46.1 µM],?,.

# Next structures
SMILES,StopGo reporter,RE007 growth inh,NS1 function inh,Cruzain noTriton,SARS PLpro yeast,LASV entry inh,Marburg entry inh,Cruzain inh Det
CC1CCCC(C)N1C(=O)/C=C/c1ccc(S(=O)(=O)N2CCOCC2)cc1 (stereo not given),-27%,20%,.,.,-1%,-25%,-20%[46.1 µM],.
CCOc1ccc2[nH]c(=O)c(CN(CC3COCCO3)C(=O)C3CC3)cc2c1 (stereo not given),-4%,39%,-5%,-1%,3%,?,6%,-5.8%
CCn1ncc([N+](=O)[O-])c1C(=O)Nc1nc2cccc(C)c2s1,-7%,-21%,-53%,.,-2%,.,.,.
O=C(Nc1ccc2nc(-c3ccc4nc[nH]c4c3)[nH]c2c1)c1cccs1,4%,22%,-10%,?,1%,0%,31%,13µM*
O=C(NCc1nc2ccccc2[nH]1)c1cccc(S(=O)(=O)N2CCCC2)c1,52%[activator],-24%,-2%,6%,2%,2%,19%,1.3%
Cn1c(=O)c(Oc2cc(Cl)cc(Cl)c2)nc2ccccc21,-14%,10%,2%,-6%,-1%,25%[14.3 µM],-11%,-11%
Cc1ccc(C)c(NS(=O)(=O)c2ccc(-c3cnc(C4CC4)o3)cc2)c1,-16%,12%,-40%,.,-11%,.,.,.
